Assay outcomes deposited in PubChem by several laboratories.
HIV Env fusion = inhibitors of HIV-1 Env-driven cell-cell fusion, primary screen, HeLa-JRFL effector, CEM21 target cells, luciferase; inhibition, % at 12.3 µM; 360,000 tested, 1.1% active; AID 651610, 2012;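 active = mean replicate inhibition score of at least 50 and every replicate individually at or above 50; inconclusive = only one of the two criteria met; inactive = mean below 50 and not all replicates reaching 50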;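 note: 0% = plate neutral controls and 100% = maraviroc near 300 nM; one replicate is shown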
UUG fidelity = modulators of yeast start codon fidelity, primary screen, whole organism, S. cerevisiae, single point, plate reader | S. cerevisiae UUG-firefly luciferase reporter, luminescence/redox ratio | activity score, % at 18.7 µM | 350,000 tested, 0.13% active | AID 602363, 2012;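 active = replicate mean at a twofold rise or more, about +100% in these data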;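 note: firefly luciferase made from a UUG start codon reports start codon fidelity; reporter light over untreated wells divided by growth signal over untreated wells; some hits fall short of that in this replicate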
PABP polyA inh = PABP poly(A) RNA binding inhibitors, primary screen, biochemical, fluorescence polarization, uHTS; Polyadenylate-binding protein 1 (Homo sapiens), P11940; inhibition, % at 35 µM; 290,000 tested, 1% active; AID 2014, 2009;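 active = 50% or more with normal probe brightness, or confirmed in later tests; inconclusive = above 50% with abnormal brightness, or retests that disagree; inactive = below 50% or failed in later tests; about a fifth of its hits are not listed in these tables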;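 note: calls also rest on retests at 20 µM and on dose response follow-up; controls were probe without protein and protein plus probe with vehicle; some compounds called inactive have numbers as strong as hits; many hits fall short of the cut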
Target sequence (P11940 whole entry, looked up): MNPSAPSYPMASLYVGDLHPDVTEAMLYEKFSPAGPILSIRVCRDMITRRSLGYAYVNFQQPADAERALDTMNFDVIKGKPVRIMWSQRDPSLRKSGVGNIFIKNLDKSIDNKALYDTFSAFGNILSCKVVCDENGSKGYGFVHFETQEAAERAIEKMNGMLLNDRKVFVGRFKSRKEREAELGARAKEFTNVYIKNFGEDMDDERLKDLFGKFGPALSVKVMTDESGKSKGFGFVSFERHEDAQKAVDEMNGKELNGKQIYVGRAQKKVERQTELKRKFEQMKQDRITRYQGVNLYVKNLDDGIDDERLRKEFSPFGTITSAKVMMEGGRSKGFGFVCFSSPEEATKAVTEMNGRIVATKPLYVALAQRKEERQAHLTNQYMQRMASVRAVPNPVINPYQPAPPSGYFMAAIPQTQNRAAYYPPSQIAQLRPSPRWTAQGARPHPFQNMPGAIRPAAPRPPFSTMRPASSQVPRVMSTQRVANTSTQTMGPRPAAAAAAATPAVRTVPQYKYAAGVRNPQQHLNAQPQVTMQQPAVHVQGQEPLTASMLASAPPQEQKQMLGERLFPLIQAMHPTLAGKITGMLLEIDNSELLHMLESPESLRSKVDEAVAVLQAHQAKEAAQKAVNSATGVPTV
eIF4H FP inh = human eIF4H binding inhibitors, primary screen, translation initiation inhibitor project, biochemical, uHTS, fluorescence polarization; eIF4H fluorescence polarization binding assay; 290,000 tested, 0.94% active; Eukaryotic translation initiation factor 4H (Homo sapiens), Q15056; inhibition, % at 35 µM;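 active = 50% or more with normal probe brightness, or confirmed in later tests; inconclusive = above 50% with abnormal brightness, or retests that disagree; inactive = below 50% or failed in later tests; about a fifth of its hits are not listed in these tables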;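 note: calls also rest on retests at 20 µM and on dose response follow-up; 0% = protein and probe with vehicle and 100% = probe without protein; strong numbers were not always called active; many hits fall short of the cut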
CSC inhib = cancer stem cell viability inhibitors, primary screen, luminescence | cancer stem cell-like cells viability | inhibition, % at 7.5 µM | 300,000 tested, 1.1% active;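 active = mean at 75% or more and at least half the replicates too; inconclusive = mean and replicates disagree; tested in HMLE shEcad cells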;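 note: 0% = median of negative and 100% = median of positive control wells; the first replicate is given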
MT1-MMP act inh = blockers of MT1-MMP proenzyme processing, primary screen, HT1080 RFP-PRO-GFP cells, GFP/RFP fluorescence | AID 651647, 2012 | 360,000 tested, 0.061% active | GFP/RFP ratio change, % at 20 µM | GFP/RFP ratio fluorescence, overnight; percent of plate control window, DMSO zero | Matrix metalloproteinase-14 (Homo sapiens), P50281;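 active = GFP/RFP ratio change of at least 30% with cell ATP level not reduced by more than half and red fluorescence within 50% of control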; note: strong numbers were not always called active
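Material – HT1080 RFP-PRO-GFP cells · Control set – DMSO wells and RFP-L50D-GFP cells · Incubation – overnight cell settling, then overnight compound exposure, 37 °C, 5% CO2 · Compound dosing – single-point 20 µM compound, 1% DMSO · Read-out – GFP/RFP fluorescence ratio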
Rce1 inh = yeast Rce1p protease inhibitors, primary screen, biochemical, fluorescence, cell-free homogeneous; yeast membranes, quenched prenylated peptide cleavage fluorescence; calls only; 290,000 tested, 0.27% active;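 active = fall in fluorescence gain of 50% or more versus controls, with final raw signal at or below 3038400; inconclusive = same 50% fall but final raw signal above 3038400; inactive = fall in fluorescence gain under 50%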;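 note: plate controls were neutral control wells for no effect and wells lacking membranes for full effect; tested at 10 µM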
eIF4H FP inh retest = second read-out of eIF4H FP inh, no call of its own (marks repeat the call); inhibition, %; compound at 20 µM; confirmation average;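 mean of two retest wells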
PABP polyA inh retest = recorded beside PABP polyA inh, whose call it bears; inhibition, %; compound at 20 µM; confirmation repeats;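 mean of two retest wells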
MT1-MMP act inh RFP = second read-out of MT1-MMP act inh, no call of its own (marks repeat the call); RFP signal change, %; measured here: RFP expression control read;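 0 = vehicle wells; hits needed this value within 50% of zero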
Active calls of the source: *; i = inactive; ? = inconclusive; . = not tested or not shown; & = joins results of further samples. Only part of the results is shown (hit frequency here may not be typical).

SMILES | HIV Env fusion | UUG fidelity | PABP polyA inh | eIF4H FP inh | CSC inhib | MT1-MMP act inh | MT1-MMP act inh RFP | Rce1 inh | others
Cc1c(C(=O)OC(C)C)sc2nc[nH]c(=O)c12 | . | . | 7 | 16 | 9 | -2 | -1 | i
Cc1ccc(C(=O)O/N=C(/c2nonc2N)N(C)C)cc1 | . | -16 | -3 | -7 | 15 | -3 | 4 | i
COc1cccc(Cn2cccc(NC(=O)Nc3ccc(C#N)cc3)c2=O)c1 | 42 | -21 | -1 | -2 | 14 | 2 | -13 | i
CC(C)(C)C(=O)Nc1c(Cl)cccc1OC(F)(F)F | 9 | . | 5 | -4 | -9 | . | . | i
Cc1ccc(-n2c(SCC(=O)NC3CCS(=O)(=O)C3)nc3ccccc3c2=O)c(C)c1 (configuration not stated) | -14 | -10 | . | . | . | -5 | 0 | .
CCOC(=O)Cc1csc(N/N=C\c2ccc(N(C)C)cc2)n1 | -8 | -20 | 2 | 3 | 13 | 1 | -1 | i
CCCc1cc(=O)oc2c3c(cc(OCC(=O)NCCCn4ccnc4)c12)OC(C)(C)CC3 | . | -17 | -8 | -12 | -10 | 2 | 1 | i
CCOc1ccccc1NC(=O)COc1coc(CN2CCc3ccccc3C2)cc1=O | 5 | -4 | . | . | -11 | 0 | -10 | i
O=C(CS(=O)(=O)c1ccccc1)c1cc2cc(F)ccc2oc1=O | . | -14 | 12 | -3 | 15 | -1 | 1 | i
COc1cccc(-c2csc(Nc3ccc(Oc4ccccc4)cc3)n2)c1 | -40 | -16 | . | . | . | 3 | -3 | .
CCOc1ccc(N2CC(C(=O)N3CCCCCC3)CC2=O)cc1 (configuration not stated) | 2 | -1 | 7 | -1 | -6 | 1 | 1 | i
O=C(Nc1ccc2nc(-c3ccco3)c(-c3ccco3)nc2c1)N1CCCCCC1 | . | . | 31 | 86 | 0 | . | . | i | eIF4H FP inh retest=7;PABP polyA inh retest=13
COC(=O)c1cc(Cl)cc(Cl)c1OS(=O)(=O)N(C)C | -1 | 6 | -4 | 8 | -12 | -1 | 3 | i
Cn1c(SCC(=O)NC2CCCCCC2)nnc1-c1ccco1 | -3 | -15 | -9 | -5 | -9 | 3 | -4 | i
CCN1CCN(c2ccc(NC(=O)c3ccco3)cc2)CC1 | 2 | -21 | 3 | 3 | -11 | -3 | 4 | i
CCN1CCCC1CNC(=O)C1c2cc(OC)c(OC)cc2C(=O)N(C)C1c1cccnc1 (configuration not stated) | -52 | -17 | -5 | -1 | 6 | -3 | -1 | i
CC(C)Oc1cccc(C(=O)C2CCCN(S(C)(=O)=O)C2)c1 (configuration not stated) | 9 | . | -7 | -6 | 9 | -4 | -2 | i
CC(/C=C/c1ccc(O)cc1)=NNc1ccccc1 | -5 | -1 | . | . | . | -3 | -6 | .
Cc1cc2c(cc1C)C(=O)CCC2 | 12 | -23 | . | . | . | 2 | 5 | .
COc1cccc(-c2ccc(NC(=O)C3CCCN(Cc4cccc(C)n4)C3)cc2)c1 (configuration not stated) | 10 | -12 | . | . | . | 5 | -5 | .
c1ccc(Nc2nc(CSc3ncn[nH]3)cs2)cc1 | -28 | . | -10 | -8 | -17 | -2 | 2 | i
CCOC(=O)c1ccc(NC(=O)Cc2coc3cc4c(cc23)CCC4)cc1 | 30 | -8 | 8 | -2 | 20 | 2 | 3 | i
Cc1ccccc1OCCNc1cc(N2CCCCC2)ccc1[N+](=O)[O-] | 54 | -28 | -3 | -2 | 17 | -8 | -6 | i
COc1ccc(C)cc1S(=O)(=O)NCCc1ccccc1 | 10 | -2 | -5 | -4 | 14 | 7 | 3 | i
NC1=NC(=O)CC(C(=O)NCc2ccccc2)S1 (configuration not stated) | -36 | -19 | 1 | -6 | -19 | 0 | 3 | i
Additional entries follow:
SMILES | HIV Env fusion | UUG fidelity | PABP polyA inh | eIF4H FP inh | CSC inhib | MT1-MMP act inh | MT1-MMP act inh RFP | Rce1 inh | others
CCN1CCN(Cc2ccc(NC(=O)c3ccc(C)c(NC(=O)C4=NN(c5ccccc5)C(=O)C4)c3)cc2C(F)(F)F)CC1 | 2 | -23&-12 | -10 | -15 | -16 | 3&4 | -1&6 | i
Cc1cc(OC(=O)c2c(Cl)cc(Cl)cc2Cl)nc(C)n1 | -9 | 0 | -8 | -6 | 13 | -1 | 2 | i
COc1cccc(NC(=O)CCC2CCN(C(=O)c3ccc(C(C)=O)s3)CC2)c1 | 0 | -4 | 1 | 2 | -8 | 3 | 2 | i
Cc1cccc(OCC(=O)OCC(=O)Nc2sccc2C(N)=O)c1 | -6 | 2 | . | . | -2 | 10 | 4 | .
CCOc1ccc(N=NC2C(=O)N(C(N)=S)N=C2C)cc1 (configuration not stated) | -170 | -31 | -7 | 1 | 5 | 7 | -1 | i
Cc1c(C)c2c(OCC(=O)NCc3ccco3)cc3c(c2oc1=O)CCC(C)(C)O3 | . | -13 | 9 | -7 | 5 | 8 | 4 | i
c1ccc2[nH]c(C3CC3)nc2c1 | 14 | . | 0 | 12 | 16 | -1 | 4 | i
O=c1[nH]c2ccc(Cl)cc2c(-c2ccccc2)c1N1CCN(c2ccccn2)CC1 | . | -17 | -2 | -2 | 40 | 5 | -4 | i
CCOc1cc(C)nc(N2CCC(C(=O)NCC3CCCO3)CC2)n1 (configuration not stated) | -2 | -17 | . | . | . | -2 | 2 | .
COc1ccc(NC(=O)c2cccc(OS(=O)(=O)N(C)C)c2)cc1 | -61 | . | 11 | 12 | . | -2 | -9 | i
C=Cc1ccc(Cn2c(C)c(C(=O)NCc3ccc4c(c3)OCCO4)sc2=O)cc1 | 16 | -12 | . | . | . | 4 | -9 | .
Cc1ccc(N/N=C/c2ccc3c(c2)OCCO3)cc1Cl | -157 | . | -4 | -4 | 13 | 1 | 4 | i
CCC(C)[C@@H](C(=O)N1CCNCC1)n1cc(CCCN=C(N)N)nn1 (some centres not stated) | -1 | -11 | 19 | 14 | 13 | -3 | 3 | i
CN(CC(=O)N1CCN(c2ccccn2)CC1)S(=O)(=O)c1ccc(Cl)cc1 | 3 | -3 | 9 | -8 | 19 | -1 | -1 | i
Cc1ccccc1C(=O)c1cccn1CC(=O)N1CCCCC1 | -7 | 6 | -1 | -9 | -28 | -2 | 2 | i
CCOc1ccccc1N(CC(=O)Nc1cc(OC)ccc1OC)S(C)(=O)=O | -80 | -2 | 10 | -2 | -1 | 11 | 10 | i
CCCN=Cc1sc2ccc(OCC)cc2c1O | -162 | -13 | 7 | 1 | 6 | 1 | 3 | i
CCCOc1ccc(NCC(=O)Nc2ccc(C)cc2C)cc1 | -30 | -16 | 8 | -9 | -4 | 6 | 5 | i
CC1CCN(C(=O)c2ccc([N+](=O)[O-])o2)CC1 | 1 | . | 0 | -2 | -16 | -1 | 0 | i
COc1ccc(NN=Nc2nc3c([nH]2)c(=O)n(C)c(=O)n3C)cc1 | -7 | . | 4 | -6 | -1 | -6 | 4 | .
O=S(=O)(c1cccc(S(=O)(=O)N2CCOCC2)c1)N1CCCCC1 | -7 | -19 | -2 | -7 | -18 | -6 | 5 | i
COc1ccc(CCNS(=O)(=O)c2cn(C)nc2C)cc1 | 1 | -43 | 9 | -2 | 16 | -5 | 0 | i
O=C1N[C@@H](c2ccccc2)COC(=O)[C@@H](Cc2ccc(F)cc2)C/C=C\C[C@H]1CC(=O)N(CCO)Cc1ccccc1 | 34 | 7 | . | . | . | -3 | -10 | .
CN(C)c1ccc(C(CNS(=O)(=O)c2ccc(F)c(F)c2)c2c[nH]c3ccccc23)cc1 (configuration not stated) | 11 | -2 | -10 | -4 | 5 | -6 | -8 | i
COc1ccc2c(c1)c(C(O)CN1CCC3(CC1)OCCO3)c(C)n2C (configuration not stated) | . | . | 5 | 13 | . | . | . | i
(cont.)
SMILES | HIV Env fusion | UUG fidelity | PABP polyA inh | eIF4H FP inh | CSC inhib | MT1-MMP act inh | MT1-MMP act inh RFP | Rce1 inh | others
COc1ccc(CNC(=O)CCCOc2cc(=O)n(C)c3ccccc23)cc1 | -75 | . | 7 | -2 | -8 | 7 | 5 | i
CCn1c(CNC(=O)Cc2ccc(OC)cc2)nnc1SCC(=O)NC1CCCCC1 | -241 | -17 | 1 | 5 | 3 | 4 | 0 | i
OCCN1CCN(c2ncnc3sc(-c4ccccc4)cc23)CC1 | -6 | -6 | -22 | -9 | . | 0 | -3 | i
C=CCOc1ccccc1C(=O)/C=C1/C(=O)Nc2ccccc21 | -30 | 0 | 0 | 2 | 51 | -1 | -3 | i
O=C(/C=C/c1cccc([N+](=O)[O-])c1)NCCSCc1ccc(Cl)cc1Cl | 46 | . | 5 | -10 | 32 | 5 | -2 | .
COC(=O)c1ccccc1S(=O)(=O)N1CCC(C(=O)OCc2ccc([N+](=O)[O-])cc2)CC1 | -8 | -10 | . | . | 5 | 0 | 2 | i
CC(=O)c1c(C(C)=O)c(C)n(-c2ccc(C)c(NC(=O)c3ccccc3Cl)c2)c1C | -69 | -10 | -5 | -8 | -9 | 6 | -2 | i
COc1ccc(-n2c(O)c(/C=C3\C=Nc4ccccc43)c(=O)[nH]c2=O)cc1 | -8 | 2 | ? | ? | . | -9 | 0 | i
Cc1c(C(=O)OCC2CCCO2)[nH]c2c1C(=O)CC(c1ccco1)C2 (configuration not stated) | . | -13 | 43* | 90* | 3 | 0 | -17 | i | eIF4H FP inh retest=103*;PABP polyA inh retest=91*
CC(C)CC(C(=O)NC1CCCCC1)N(Cc1ccccc1)C(=O)c1snc(C(N)=O)c1N (configuration not stated) | 6 | 5 | -8 | 9 | . | 1 | -3 | i
O=C(CCSc1nnc(-c2ccncc2)o1)Nc1cccc2ccccc12 | . | . | 3 | 8 | 8 | 5 | 0 | i
O=C(COC(=O)c1ncc(Cl)c(Cl)c1Cl)NC(=O)NCc1ccccc1 | 0 | -23 | -2 | 1 | -39 | 1 | 5 | i
O=C(CCn1c(=O)[nH]c2ccsc2c1=O)NCCc1ccc(Cl)cc1 | -11 | -24 | 8 | 6 | -14 | 0 | 3 | i
Cc1c(C=O)c2ccccc2n1CC(=O)O | 14 | . | 0 | -15 | -20 | 0 | 4 | i
O=C(NC1CCSc2ccccc21)c1ccc(Cl)c(S(=O)(=O)N2CCOCC2)c1 (configuration not stated) | . | 3 | -6 | -2 | . | -1 | -3 | i
COc1ccc(OCCC(=O)OCC(=O)Nc2cccc(Br)c2)cc1 | 7 | . | -25 | 6 | . | 4 | 6 | i
C=CCOC(=O)/C(=C\C=C\c1ccccc1)NC(=O)c1ccccc1 | . | . | -15 | -21 | -2 | 7 | -3 | i
COCCOC(=O)c1c(C)oc2ccc(NS(=O)(=O)c3cccs3)cc12 | 10 | . | 2 | 22 | 10 | 1 | 1 | i
O=C(/C=C/c1cc2c(cc1Br)OCO2)NCc1ccc(F)cc1 | . | -5 | -7 | 0 | -12 | 3 | -1 | i
O=C(CN(Cc1cccs1)C(=O)CN1C(=O)COc2ccccc21)NCc1ccco1 | -11 | -4 | 13 | -4 | -16 | -2 | 0 | i
